High-throughput results from PubChem BioAssay.
TRPML1 blocker – inhibitors of human TRPML1 channel; activity change, negative = inhibition, % (concentration not given with the values); 390,000 tested, 0.02% active; AID 624415; Q9GZU1; TRPML1-inducible cells, Ca2+ dye fluorescence, FDSS; stronger effect = lower value; inhibition of EC80 agonist-evoked calcium signal; in the data active means activity change below about -50%; inconclusive means about -30% to -50%; inactive means above about -30%;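 also: stimulus is agonist 54-4 at its EC80 concentration; % is scaled to controls: 0 for no effect and ±100 for the full control effect; compound concentration not given in the record; the text of the record puts the active cut at -80%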
Target sequence (Q9GZU1 whole entry, looked up): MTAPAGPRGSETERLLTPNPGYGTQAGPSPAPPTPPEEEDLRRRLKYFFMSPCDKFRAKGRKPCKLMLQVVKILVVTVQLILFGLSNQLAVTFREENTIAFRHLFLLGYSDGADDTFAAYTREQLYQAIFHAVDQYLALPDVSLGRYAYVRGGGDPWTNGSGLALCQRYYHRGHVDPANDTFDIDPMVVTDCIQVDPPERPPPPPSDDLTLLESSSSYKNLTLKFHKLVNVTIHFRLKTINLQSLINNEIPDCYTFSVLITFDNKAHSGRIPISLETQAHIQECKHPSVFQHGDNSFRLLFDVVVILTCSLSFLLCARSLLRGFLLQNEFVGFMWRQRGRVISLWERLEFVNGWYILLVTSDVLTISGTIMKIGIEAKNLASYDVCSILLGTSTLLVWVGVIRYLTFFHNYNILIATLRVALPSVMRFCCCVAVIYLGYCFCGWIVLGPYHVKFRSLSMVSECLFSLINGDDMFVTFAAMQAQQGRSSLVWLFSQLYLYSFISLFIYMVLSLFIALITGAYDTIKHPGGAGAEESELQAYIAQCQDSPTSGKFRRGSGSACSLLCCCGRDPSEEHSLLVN
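Calcium fluorescence in TRPML1-DL cells induced overnight with Tet: a 110 s read after compound pin addition, then a 110 s antagonist read after challenge with 54-4 at 4 uM final (EC80).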
gsp agonist – agonists of gsp mutant (McCune-Albright syndrome); gsp mutant cells, cAMP HTRF, 30 min; control for the full effect not named in the record; Potency, µM (highest dose often 76.9 µM), for the others: at the top dose activation (cAMP increase), most hits filed as activators; 340,000 tested, 0.13% active; active = well fitted activation curve with a large enough effect; inconclusive = small, poorly fitted or top-dose-only effect, or another doubt; inactive = no such curve, though single readings can be large or run the other way; cell line not stated here;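 also: phosphodiesterase inhibitor Ro 20-1724 added with compounds to block cAMP breakdown; potency is read from the fitted curve at half-maximal effect; nearly all actives have a fitted effect of over 60% in size; about a fifth of the inactives were tested at one dose only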
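Cells stably selected in G418 were plated at 2000/well, grown 16-24 hr, then given compounds in DMSO with the PDE inhibitor […] (300 uM solution added) for 30 min at 37C; cAMP was read by HTRF.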
gsp antag – antagonizes gsp, the McCune-Albright syndrome mutation | 340,000 tested, 0.4% active | gsp-mutant cells, cAMP HTRF, 30 min; control for the full effect not named in the record | Potency, µM (top dose mostly 76.9 µM), inactives show at the top dose activity change, negative = inhibition, actives largely listed as inhibitors; active = falling curve of any shape with a large fitted effect; inconclusive = falling curve, mostly with a smaller effect; inactive = flat or rising curve; cell line not stated here;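 also: intracellular cAMP measured with PDE inhibitor Ro 20-1724 present during compound exposure; potency is read from the fitted curve at half-maximal effect; % is scaled to controls: 0 for no effect and ±100 for the full control effect; nearly all actives have a fitted effect of over 65% in size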
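HTRF cAMP measurement after 30 min RT detection following 30 min, 37C compound treatment alongside […] (added as 300 uM solution) in G418-selected cells seeded at 2000/well and grown 16–24 h.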
TRPML1 ag – agonists of human TRPML1 channel | Q9GZU1 | TRPML1-expressing cells, Ca2+ dye fluorescence, FDSS; host cell line not named in the record; reference of the full effect not given here | activation, % (concentration not given with the values) | 410,000 tested, 0.12% active | AID 624414; in the data active = activation above about 50%; inconclusive = about 30% to 50%; inactive = below about 30%; also: 0% is about no effect; the text of the record puts the active cut at 80%
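Tetracycline-induced TRPML1-DL cells are seeded and incubated overnight before loading with a no-wash Ca2+ dye and quencher. Agonist activity is taken from the 110 s fluorescence read following compound pin-transfer on an FDSS, before EC80 54-4 challenge.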
Menin-MLL FL inh – inhibitors of human menin-MLL interaction, wild-type MLL peptide; Fluorescence polarization, fluorescein-MLL peptide displacement from menin; FP activity change, % at 61.4 µM; 290,000 tested, under 10 active; AID 1766; inconclusive = falling polarisation curve, or a change in total fluorescence; inactive = total fluorescence flat and polarisation flat or rising; no compound was filed as active; the % refers to the polarisation; negative = inhibition;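 also: % of control where 0% means no effect; inhibitors lower the polarisation; unlabelled MLL peptide was the positive control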
ClpP mod – qHTS Assay for Activators of ClpP. ATP-dependent Clp protease proteolytic subunit (Bacillus subtilis (strain 168)), P80244. purified B. subtilis ClpP, FRET peptide cleavage, 20 min. Potency, µM (top dose mostly 57.5 µM), for the others: at the top dose activity change, negative = active. 340,000 tested, 1.9% active. AID 651965, 2013; active = well fitted falling curve with a large enough effect; inconclusive = small, poorly fitted or top-dose-only effect; inactive = no such curve, though single readings can be large or run the other way; also: potency is read from the fitted curve at half-maximal effect; the source files actives as falling curves though it sought activators and does not explain the sign; nearly all actives have a fitted effect of over 65% in size; many hits overshoot -100%
Target sequence (P80244 whole entry, looked up): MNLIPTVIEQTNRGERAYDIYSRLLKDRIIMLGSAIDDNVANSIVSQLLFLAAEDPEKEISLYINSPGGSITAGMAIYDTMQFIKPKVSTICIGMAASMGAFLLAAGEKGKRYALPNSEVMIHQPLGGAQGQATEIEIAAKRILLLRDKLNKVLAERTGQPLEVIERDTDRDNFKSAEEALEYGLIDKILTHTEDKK
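Buffer: 100 mM Tris/HCl pH8, 100 mM KCl, 0.05% low protease BSA, 2.5% glycerol, 0.01% Tween-20. ClpP 10 microg/mL final; 20 min RT; delta FRET normalized to ADEP and DMSO controls.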
Starred values were filed as active, the others as inactive; ? = inconclusive; / = no result given; [ ] = dose if it differs, or a comment.

SMILES	TRPML1 blocker	gsp agonist	gsp antag	TRPML1 ag	Menin-MLL FL inh	ClpP mod
O=C(Nc1ccc(S(=O)(=O)N2CCOCC2)cc1)c1cc(-c2cc(Cl)ccc2O)n[nH]1	37.8	-35.4%[inhibitor]	?	0.4	3.9	0.8%
CCCCC[n+]1cccc2c3ccccc3ccc21	13.5	10.6%	6.5%	0.5	?	3.8%
CCCNC(=O)c1onc(CSc2ccc(F)c(F)c2)c1C(=O)NCCC	-5.5	/	-7.8%	-0.2	/	1.1%
Cn1c(=O)c2c(nc(N3CCc4ccccc4C3)n2C)n(C)c1=O	2.6	11.6%	-0.4%	0.0	-5.5	-2.1%
COc1ccc(CCNc2oc(-c3ccccc3OC)nc2C#N)cc1OC	5.8	-6.4%	-5.5%	0.3	-0.4	?
O=C(CC(=O)c1cccs1)c1ccncc1	9.2	-18.0%	9.8%	-0.7	/	/
CCCCCOC(=O)Cn1c(=O)oc2ccc(C)cc21	42.4	17.6%	?	0.9	2.2	0.6%
CCC(Sc1nc2cc(OC)c(OC)cc2c(=O)n1CCc1ccc(Cl)cc1)C(=O)NCCOC (stereo unspecified)	?	/	/	0.5	/	-4.5%
CCCCC(=O)Nc1ncc(Br)s1	12.3	-20.1%	4.8%	0.5	0.7	0.7%
CCC(=O)Nc1c(C)nn(-c2ccc(C)c(C)c2)c1C	-6.0	-4.5%	-12.4%	0.6	1.8	-11.6%
Cc1cc(C)nc(-n2nc(C)cc2NC(=O)CN2CCc3ccccc3C2)n1	-12.6	-18.9%	-5.8%	0.8	0.9	0.3%
COC(=O)CC1C(=O)NCCN1Cc1cn(-c2ccc(C)cc2)nc1-c1cccc(C)c1 (stereo unspecified)	1.5	-13.5%	-19.4%	0.7	-1.6	/
COc1cc(/C=C2/C(=N)N3OC(C)=CC3=NC2=O)ccc1OC(=O)c1ccco1	-4.1	6.1%[15.4 µM]	-4.3%	3.0	?	/
COc1ccc(CNc2ncc(-c3cccc([N+](=O)[O-])c3)n2C)c(OC)c1OC	/	-38.7%[inhibitor]	-14.6%	/	-8.7	-0.4%
C[N+]1(CC(=O)Nc2ccccc2Cl)CCN(C(=O)c2cccs2)CC1	4.7	7.2%	11.4%	-0.3	0.8	0.9%
O=C1OC[C@@H]2CCCN2C(=O)[C@H](CC(=O)N(CCO)Cc2ccccc2)C/C=C\C[C@H]1Cc1ccc(F)cc1	4.7	16.6%	-9.6%	0.1	/	2.1%
C=CCn1c(C)nnc1SCC(=O)N1CCN(S(=O)(=O)c2ccccc2)CC1	3.0	-3.6%	7.3%	1.8	1.2	-3.3%
Cn1ncc(Br)c1C(=O)NC(=S)N1CCN(c2ccccn2)CC1	35.7	-9.6%	-0.5%	3.9	3.8	1.4%
CN(C(=O)CSc1nncc2ccccc12)C1CCCCC1	11.0	13.4%	3.7%	4.2	8.0	-1.9%
Cn1nnnc1SCc1nnc(-c2ccc(Cl)cc2)o1	3.8	-21.2%	11.6%	-0.2	3.5	-0.8%
NNC(=O)c1cc(Br)cs1	31.8	48.1%	5.3%	1.7	0.4	-2.0%
CCc1ccc(N=C2NC(=O)/C(=C/c3ccc(OCC(=O)O)cc3)S2)cc1	-4.0	-29.3%	7.6%	0.7	5.4	2.2%
Nc1c(C(=O)Nc2ccc3c(c2)OCCO3)nnn1CCc1ccccc1	13.4	?	3.0%	0.5	-0.5	-0.7%
CCn1cc(C(=O)N2CCN(c3cc(Cl)ccc3C)CC2)c(=O)c2cc(S(=O)(=O)N3CCCCC3)ccc21	-1.5	/	/	-0.3	/	-6.8%
O=C(CSc1nnc(SCc2ccccc2)s1)N/N=C/c1c(Cl)cccc1Cl	13.7	0.0%	-16.5%	3.3	-0.3	0.1%
COCCOc1cc(N(CC(=O)N(C)C)S(=O)(=O)c2ccccc2)c(Cl)cc1Cl	26.5	3.1%[15.4 µM]	0.2%	0.9	1.8	/
CCCOc1ccc(OC(=O)Cc2ccc(OC)c(S(=O)(=O)N3CCOCC3)c2)cc1	-5.4	-0.1%[15.4 µM]	1.7%	1.7	/	-9.8%
COCCNC(=S)N1CCN(c2nc3ccccc3s2)CC1	-9.0	-57.2%[inhibitor]	-27.6%	0.9	3.4	0.4%
COC(=O)c1cc(OC)c(OC)cc1NC(=O)Cc1ccccc1[N+](=O)[O-]	-7.6	13.9%	-1.7%	0.2	-0.5	0.6%
CC(C)[N+](C)(CCOC(=O)C1c2ccccc2Oc2ccccc21)C(C)C	-24.8	/	2.5%	-0.4	1.1	0.9%
Cc1cn([C@H]2C[C@H](O)[C@@H](/C=C/C(=O)NCc3ccccc3)O2)c(=O)[nH]c1=O	6.6	/	/	-0.3	/	-0.8%
COC(=O)C(CCCN1C(=O)c2ccccc2C1=O)(NC(C)=O)c1nn[nH]n1 (stereo unspecified)	5.0	16.1%	7.7%	3.8	-0.7	-0.3%
Cc1cc(C)nc(NS(=O)(=O)c2ccc(NC(=O)c3ccccc3Br)cc2)n1	-0.5	-2.1%	/	-0.4	/	-3.0%
CC1(C)Cc2ccccc2-c2nc3n(c(=O)c21)CCS3	32.9	?	10.0%	-0.7	-5.7	/
CCOC(=O)CNC(=O)CSc1nc(-c2ccccc2)ns1	90.8	-16.2%[15.4 µM]	-0.6%	0.5	-2.9	/
COc1ccc(/C=C/C(=O)OCC(=O)c2ccccc2F)cc1	-9.6	-18.4%	14.1%	2.7	/	-2.5%
CCOc1ccccc1N(CC(=O)Nc1ccc(OC)c(OC)c1)S(=O)(=O)c1ccccc1	2.3	?	-16.4%	1.0	-0.9	-2.6%
CN(C)CCCNS(=O)(=O)c1ccc(Oc2ncc(C(F)(F)F)cc2Cl)cc1	-8.1	16.8%	15.1%	-0.2	1.9	1.5%
COc1ccc(Cc2cc(-c3ccc(F)cc3)n[nH]c2=O)cc1	2.5	13.8%	-8.5%	2.7	1.2	-3.4%
O=[N+]([O-])c1ccc(-c2cn3ccccc3n2)cc1	-0.5	?	10.5%	-0.8	/	0.7%
O=C(CSC(=S)N1CCN(c2ccccc2)CC1)Nc1nc(-c2ccccc2)c(-c2ccccc2)o1	-16.0	-8.2%[15.4 µM]	2.8%	0.2	-6.4	/
Cc1cccc(NC(=O)CSc2nc3ccccc3nc2N2CCCCC2)c1C	16.8	/	/	-0.7	/	-0.5%
COC(=O)[C@]1(C)N[C@H](CN(C)S(=O)(=O)c2ccc(OC)cc2)[C@@H]2C(=O)N(C)C(=O)[C@@H]21	2.3	/	4.2%	-0.9	/	6.7%
O=C(CSCc1ccccc1)N1CCN(c2ccc(F)cc2)CC1	-3.2	?	-8.6%	0.2	4.9	-1.3%
O=[N+]([O-])c1ccc(S(=O)(=O)N2CCN(c3ccnc4cc(Cl)ccc34)CC2)cc1	15.0	9.2%	-20.4%	-0.6	/	2.3%
c1ccc(-c2n[nH]nc2-c2ccccc2)cc1	5.7	4.9%	0.4%	2.3	0.7	-1.9%
CCN(CC)S(=O)(=O)c1ccc(-c2csc(C)n2)s1	20.4	-11.1%[15.4 µM]	-7.7%	0.0	2.0	/
Cc1oc(-c2ccccc2F)nc1CN1CCC(C(=O)NC2CCCc3ccccc32)CC1 (stereo unspecified)	-0.5	4.6%	-2.3%	-1.0	-0.4	3.8%
COc1ccc2[nH]c3c(=O)n(Cc4ccc(C(=O)N5CCCCCC5)cc4)c(=S)[nH]c3c2c1	7.3	20.7%	1.1%	0.5	-4.6	15.7%
COc1ccccc1-c1ccc(SCC(=O)NCc2ccc3c(c2)OCO3)nn1	-0.3	2.7%[15.4 µM]	-9.4%	2.4	-0.6	/
CCOc1ccc(N(CC(=O)NCC2CCCO2)S(=O)(=O)c2ccc(C)cc2)cc1 (stereo unspecified)	30.0	3.3%[15.4 µM]	7.5%	-1.5	-3.2	-0.1%
O=C(CSc1nc(-c2ccccc2)nc2c1CCCC2)c1ccc(F)cc1	15.3	/	/	1.7	/	-0.4%
Cc1cc2nc(SCCN3CCOCC3)[nH]c2cc1C	-17.5	-0.8%	21.0%	-1.2	0.0	-2.6%
Cc1cccc(C)c1Nc1nnc(SCC(=O)Nc2cc(S(=O)(=O)N3CCCCC3)ccc2Cl)s1	-3.9	-0.6%	-8.4%	-0.4	3.4	1.5%
COCC(=O)N(Cc1cc2cc(C)ccc2[nH]c1=O)c1cccc(C)c1C	10.8	-17.3%	-13.2%	-0.1	1.4	/
O=C(O)C1CCCCC1C(=O)NCc1ccc(F)cc1 (stereo unspecified)	30.6	-2.7%	5.1%	-0.6	0.4	-0.9%
O=C(NC12CC3CC(CC(C3)C1)C2)c1ccc(-c2cccc(Cl)c2)o1	15.9	2.3%	-15.6%	1.6	3.3	?
Cc1cc(=O)n(Cc2cccc(Cl)c2)c2c1c(C)nn2C	-27.8	/	/	3.4	/	-24.2%
COc1ccccc1Nc1nc(N)nc(CCl)n1	-1.5	-1.7%[15.4 µM]	-0.3%	0.4	-2.9	/
N=C1SCC(=O)N1c1ccc(Cl)cc1	10.0	-0.9%	-2.6%	0.1	11.2	-0.8%
More entries:
SMILES	TRPML1 blocker	gsp agonist	gsp antag	TRPML1 ag	Menin-MLL FL inh	ClpP mod
O=C(OCc1ccccc1)N(CCCCN(CCCNCc1ccccc1)C(=O)OCc1ccccc1)CCCNCc1ccccc1	-7.9	-4.8%	18.1%	0.2	/	1.9%
CC(C)C1C(=O)N(Cc2cn(CC3CCCCC3)nn2)CCS(=O)(=O)N1Cc1ccc(-c2ccc(F)nc2)cc1 (stereo unspecified)	-2.5	-34.8%[inhibitor]	/	-0.4	/	-0.2%
C[C@]12c3[nH]c4ccc(Cl)cc4c3CCN1C(=O)[C@@H](CC(=O)NCc1cccc(C(F)(F)F)c1)C[C@@H]2C(=O)N1CCOCC1	-7.8	/	-0.6%	3.0	/	0.3%
Cc1nnc(SCC(=O)NC2CCCC2)n1-c1ccccc1	-6.0	2.6%	8.9%	-0.2	/	0.0%
COC(CNC(=O)c1ccc(N2CCCC2=O)cc1)OC	39.9	8.2%	7.4%	1.1	5.2	-0.8%
CCCCNC(=O)C1(NC(=O)Nc2ccccc2)CCCCC1	3.0	5.4%	-12.9%	1.3	-3.5	1.1%
Cc1cccc(-n2nnc(C(=O)Nc3ccc(F)cc3)c2N)c1	-8.2	-15.5%	-11.4%	0.7	-1.4	-0.7%
O=C(/C=C/C(=O)N1CCc2ccccc2C1)N1CCc2ccccc2C1	-8.9	26.7%	1.3%	-0.1	-1.2	-4.3%
CCc1c(C)nc(SCC(N)=O)c(C#N)c1C	0.5	-2.0%	4.4%	0.2	-0.1	-2.2%
Cc1cccc(-n2c(SCC(N)=O)nnc2-c2ccco2)c1	5.8	-13.2%	4.9%	-0.6	2.6	-1.1%
CCOC(=O)c1nn(-c2cccc(OC)c2)c2nc(CC)c(C#N)c(=O)n12	12.3	12.5%	6.8%	3.1	0.2	11.4%
